RE007 growth inh – less growth of the S. pombe RE007 Vpr strain | S. pombe RE007 Vpr strain, BacTiter-Glo ATP luminescence, 24 h; control for the full effect not named in the record | Potency, µM (titrated, usually from 92.2 µM), for the others: top-dose activity change, negative = less growth | hit rate 0.21% among 360,000 | AID 651644; active = well fitted falling curve with a large enough effect; inconclusive = small, poorly fitted or top-dose-only effect; inactive = no such curve, though single readings can be large or run the other way;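 note: % is set by controls: 0 for no effect and ±100 for the full control effect; nearly all actives have a fitted effect of over 50% in size; the assay follows cell death caused by Vpr and the record does not say whether a fall means rescue or toxicity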
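Fission yeast strain RE007, carrying one chromosomally integrated HIV-1 vpr copy, was seeded at OD 0.01 in PMG+AL medium with 23 nL pinned compound. After 24 h at 30 °C and 99% humidity, viability was read by BacTiter-Glo luminescence.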
NS1 function inh – inhibitors of influenza NS1 protein function; S. cerevisiae slowed by influenza A NS1, growth recovery by OD600; Potency, µM (series often up to 46.1 µM), for inactives: top-dose activity, positive = more growth; hit rate 0.4% among 270,000; AID 2326; active means well fitted rising curve with a large enough effect; inconclusive means small, poorly fitted or top-dose-only effect; inactive means no such curve, though single readings can be large or run the other way; note: nearly all actives have a fitted effect of over 50% in size
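S. cerevisiae expressing influenza A NS1, grown in glucose, washed, then diluted 1:100 into pH 6.0 -URA galactose medium with 23 nl compound. Growth recovery read as OD600; NS1-free strain serves as control.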
MARV entry inh – Marburg virus entry inhibition | hit rate 1.8% among 300,000 | AID 540276 | Potency, µM (highest dose often 37.8 µM), inactives show top-dose activity change, negative = inhibition, actives largely listed as inhibitors | Marburg virus pseudotyped entry inhibition, cell reporter; control for the full effect not named in the record; about a third of the inactives were read at about 46 µM; active = well fitted inhibition curve with a large enough effect; inconclusive = small, poorly fitted or top-dose-only effect, or effect the other way; inactive = flat fitted curve, though single readings scatter; tested in HEK293 cells; about a fifth of its hits are not listed in these tables; note: % is set by controls: 0 for no effect and ±100 for the full control effect; luciferase read-out
SARS PLpro yeast – inhibitors of SARS-CoV papain-like protease in yeast; S. cerevisiae expressing SARS-CoV PLpro, growth rescue; control for the full effect not named in the record; Potency, µM (series often up to 32.9 µM), for inactives: at the top dose activity, positive = growth rescue; hit rate 0.19% among 330,000; active means well fitted rising curve with a large enough effect; inconclusive means small, poorly fitted or top-dose-only effect; inactive means no such curve, though single readings can be large or run the other way; note: 0% is about no effect; nearly all actives have a fitted effect of over 55% in size; growth read by luminescence after 48 h
Cruzain Triton – inhibitors of Trypanosoma cruzi cruzain with detergent; purified cruzain, Z-FR-AMC fluorescence, 0.01% Triton; Potency, µM, without a hit: max response, negative = inhibition, most hits filed as inhibitors; hit rate 0.43% among 200,000; AID 1478;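 note: plate controls were neutral wells for no effect and buffer without enzyme for full effect; nearly all actives have a fitted effect of over 40% in size; top concentration of the series not given in the record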
Target sequence (P25779 123-467 limits assumed): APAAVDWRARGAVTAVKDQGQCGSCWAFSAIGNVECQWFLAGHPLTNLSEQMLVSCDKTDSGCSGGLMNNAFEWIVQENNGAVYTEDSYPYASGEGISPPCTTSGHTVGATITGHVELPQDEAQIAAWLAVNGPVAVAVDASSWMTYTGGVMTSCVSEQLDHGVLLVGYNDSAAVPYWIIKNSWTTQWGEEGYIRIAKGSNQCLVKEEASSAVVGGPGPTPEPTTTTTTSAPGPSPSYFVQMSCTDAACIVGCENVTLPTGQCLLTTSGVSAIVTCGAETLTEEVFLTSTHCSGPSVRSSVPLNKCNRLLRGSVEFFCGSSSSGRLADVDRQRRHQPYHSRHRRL
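Purified cruzain (1.5 nM final) was preincubated with compounds for 15 min at room temperature in 100 mM sodium acetate pH 5.5, 5 mM DTT, 0.01% Triton X-100. Reaction started with 2 uM Z-FR-AMC; AMC fluorescence change over 60 s gave activity.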
Lassa entry inh – blocks Lassa virus binding to or entry into cells; hit rate 1.2% among 300,000; Potency, µM (doses to about 37.9 µM), inactives show at the highest dose activity change, negative = inhibition, usual class: inhibitors; AID 540256; Lassa virus pseudotype entry inhibition, cell reporter; control for the full effect not named in the record; active means well fitted inhibition curve with a large enough effect; inconclusive means small, poorly fitted or top-dose-only effect, or effect the other way; inactive means flat fitted curve, though single readings scatter; tested in HEK293 cells; note: % is set by controls: 0 for no effect and ±100 for the full control effect; nearly all actives have a fitted effect of over 50% in size; luciferase read-out
Cruzain noTriton – blocks cruzain activity in detergent-free assay | Potency, µM, for the others: max response, negative = inhibition, actives largely listed as inhibitors | hit rate 2.3% among 200,000 | purified cruzain, Z-FR-AMC fluorescence, no detergent;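 note: plate controls were enzyme without inhibitor for no effect and buffer without enzyme for full effect; nearly all actives have a fitted effect of over 40% in size; top concentration of the series not given in the record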
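Purified cruzain at 1.5 nM, pre-incubated 15 min with compound at room temperature in 100 mM sodium acetate pH 5.5, 5 mM DTT, 0.00005% Triton X-100. Reaction started with 2 uM Z-FR-AMC; AMC fluorescence increase over 60 s gives rate.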
StopGo reporter – FMDV 2A StopGo reporter, luciferase signal. human cells with a luciferase reporter of 2A StopGo recoding; control for the full effect not named in the record. Potency, µM (doses to about 57.9 µM), inactives show at the top dose signal change, negative = less light. AID 1159524. hit rate 1.2% among 410,000; active = well fitted falling curve with a large enough effect; inconclusive = small, poorly fitted or top-dose-only effect; inactive = no such curve, though single readings can be large or run the other way; tested in HEK293T cells; note: % is set by controls: 0 for no effect and ±100 for the full control effect; nearly all actives have a fitted effect of over 45% in size; luciferase light after 4 h
The depositor's hits bear a star; ? = inconclusive; . = no result given; [ ] = another dose, or the depositor's remark. Unless noted, calls come from the whole dose curve; as a rule, active = well fitted curve in the direction sought with a large enough effect; inconclusive = small, poorly fitted or top-dose-only effect, or another doubt; inactive = no such curve, though single readings can be large; an effect the other way counts as inactive or inconclusive. Potency is the fitted concentration of half-maximal effect. Compounds were not picked by outcome; 4.7% or so of the library scored in one or more.

SMILES	RE007 growth inh	NS1 function inh	MARV entry inh	SARS PLpro yeast	Cruzain Triton	Lassa entry inh	Cruzain noTriton	StopGo reporter
COc1ccccc1N1CCN(S(C)(=O)=O)CC1	-2.3%	4.6%	26.3%	11.8%	-0.1%	8.1%	17.6%	.
COc1ccc(S(=O)(=O)N2CCN(C(=O)c3ccco3)CC2)cc1OC	-14.1%	-1.4%	3.2%	0.4%	0.1%	5.6%	4.3%	1.4%
Cc1ccsc1/C=C(\CC(=O)O)c1nc2ccccc2o1	-7.1%	-63.7%	15.2%[46.1 µM]	-9.1%	.	29.0%[46.1 µM]	.	4.9%
CC1(c2ccccc2)NC(=O)N(CC(=O)N2CCN(S(=O)(=O)c3cccc([N+](=O)[O-])c3)CC2)C1=O (stereo unspecified)	19.1%	.	-0.5%	-4.3%	.	-4.1%	.	-13.9%
Cc1ccc(C)c2[nH]c(=O)c(CCNC(=O)c3ccc(S(=O)(=O)N4CCOCC4)cc3)cc12	0.9%	-0.1%	-22.2%	1.0%	.	-18.5%	.	-17.4%
Nc1cc2c(cc1O)CCCC2	3.3%	3.5%	-3.5%[46.1 µM]	0.1%	.	-1.5%	.	3.6%
COc1ccc(C/C(C)=N/NC(=O)c2ccc(C)cc2C)cc1	14.5%	.	19.3%[46.1 µM]	-2.4%	.	2.9%[46.1 µM]	.	-4.0%
CCCc1cc(=O)n2nc(N3CCC(C(=O)NCc4ccco4)CC3)sc2n1	9.2%	4.5%	.	2.0%	.	.	.	-2.7%
Cc1[nH]n(-c2ccccc2)c(=O)c1C=Nc1cccc(F)c1	?	-1.5%	10.6%	-2.3%	.	-19.5%	.	18.9%
CSc1ccc(Cl)c(C(=O)Nc2ccc(OCC(N)=O)cc2)c1	4.5%	-23.6%	-3.7%	-0.3%	4.7%	-0.7%	-4.2%	2.1%
COc1ccccc1/C=C/C(=O)N1CCCC1	-9.9%	26.8%	?	-5.9%	-4.2%	16.2%	-3.9%	29.7%
Cc1nnc(NC(=O)CCn2cnc3ccccc3c2=O)s1	16.2%	6.3%	6.3%	-1.1%	.	9.6%	.	0.9%
COc1ccc(/C=N/OC(=O)c2ccc(Cl)cc2)c(Cl)c1OC	-9.6%	0.3%	6.9%[46.1 µM]	-0.6%	.	21.0%[46.1 µM]	.	-1.0%
O=c1[nH]c2ccc(NCc3ccccc3OCc3ccc(Cl)cc3)cc2[nH]1	-8.1%	21.4%	.	-1.7%	.	.	.	?
COc1ccccc1CCN1CCCC(CN(C)C(=O)CCC(=O)N(C)C)C1 (stereo unspecified)	8.7%	-0.7%	14.0%[46.1 µM]	0.6%	.	?	.	2.7%
Nc1ccccc1Sc1c[nH]c2ccccc12	-8.2%	-16.9%	.	0.5%	.	.	.	13.3%
O=C(CC1Oc2ccc(Cl)cc2NC1=O)NC1CCCCCC1 (stereo unspecified)	18.5%	1.9%	18.3%	-24.6%	0.4%	8.4%	?	-26.8%
COC(=O)C1=CO[C@@H](OC2OC(CO)C(O)C(O)C2O)[C@@H]2C(CO)=CC[C@H]12 (stereo partly specified)	12.9%	-2.1%	10.0%	-10.3%	1.5%	24.6%	1.7%	-9.4%
Cc1ccc(NC(=O)C2CCN(C(=O)c3ccc(F)cc3)CC2)nc1	-5.0%	.	1.2%[46.1 µM]	1.1%	.	-6.0%	.	-21.2%
CCN1CCN(CCCNC(=O)Cn2nc(C)n3c(cc4c(OC)cccc43)c2=O)CC1	.	.	-4.4%[46.1 µM]	.	-4.0%	.	-4.8%	-13.7%
NS(=O)(=O)c1ccc(NC(=O)COC(=O)c2cccc(S(=O)(=O)N3CCCC3)c2)cc1	-17.3%	-2.8%	.	0.7%	.	.	.	-24.4%
CCCSc1cc(=O)n(-c2ccc(F)cc2)nc1C(=O)OCC	35.3%	-3.9%	?	-1.7%	.	-2.3%	.	-4.6%
COc1ccc(-c2nnc3ccc(SCC(=O)N4CCN(c5ccccc5)CC4)nn23)cc1	12.2%	-11.9%	-16.3%[46.1 µM]	.	.	6.8%[46.1 µM]	.	11.0%
Cc1cc(C(=O)NNC(=S)NCc2ccccc2)no1	15.3%	-3.7%	.	2.6%	.	.	.	-2.6%
Cc1ccc2nc(-c3ccccn3)cc(C(=O)NCCc3ccc(F)cc3)c2c1	4.5%	0.5%	?	-0.7%	.	-17.6%	.	-23.5%

The list continues:
SMILES	RE007 growth inh	NS1 function inh	MARV entry inh	SARS PLpro yeast	Cruzain Triton	Lassa entry inh	Cruzain noTriton	StopGo reporter
Cc1cccc(N2CCN(C(=O)CCn3c(=O)c4cccn4c4cccnc43)CC2C)c1 (stereo unspecified)	.	.	.	.	-4.9%	7.94µM*	11.9%	?
COc1ccc(Nc2nc(OC)nc(N3CCOCC3)n2)cc1	-1.5%	-3.6%	.	-0.9%	.	.	.	-0.5%
C=CCNC(=O)c1ccc(OC2CCN(S(=O)(=O)N(C)C)CC2)cc1	21.8%	-1.6%	29.3%[14.2 µM]	-0.7%	.	16.6%	.	0.0%
CN(C)S(=O)(=O)c1cccc(NC(=O)COC(=O)C2CCN(C(=O)c3ccc(F)cc3)CC2)c1	7.1%	.	?	0.5%	.	-0.9%	.	-9.6%
COc1ccc(Cl)cc1NC(=O)CN1C(=O)C(C)(C)c2cc(S(=O)(=O)N3CCCCC3)ccc21	.	.	.	.	-6.2%	?	22.0%	54.9%[activator]
COc1ccc(NC(=O)c2cccnc2Cl)c(S(=O)(=O)N2CCOCC2)c1	-2.6%	2.7%	25.6%	4.5%	1.5%	0.7%	-23.8%	36.8%[activator]
Cc1ccc(S(=O)(=O)N2CCN(C)CC2)cc1-c1nnc2c3ccccc3c(C)nn12	7.5%	-4.1%	-24.6%	4.8%	2.9%	-17.7%	-16.6%	11.8%
CCc1ccccc1NC(=O)CCc1c(C)nc2cc(-c3ccccc3)nn2c1C	.	.	1.8%[46.1 µM]	.	-0.4%	7.6%[46.1 µM]	13.1%	-26.3%
COc1ccc(/C(C)=N/NC(=O)CNC(=O)/C=C/c2ccccc2OC)cc1	-9.9%	-3.8%	17.3%[46.1 µM]	-1.7%	.	?	.	-2.9%
COc1ccc(CN2CCN(C(=O)CCC(=O)Nc3nnc(C(C)C)s3)CC2)cc1F	18.9%	-9.4%	-1.3%[46.1 µM]	-0.8%	.	3.5%[46.1 µM]	.	-22.1%
O=C(Nc1cccc2ccccc12)c1nn(C23CC4CC(CC(C4)C2)C3)cc1Br	29.6%	18.0%	?	-8.9%	2.8%	?	10µM*	-11.3%
CCOC(=O)CCc1c(C)nc2cc(-c3ccc(Cl)cc3)[nH]n2c1=O	2.3%	0.8%	22.8%	4.8%	2.0%	18.1%	10.3%	13.1%
O=C(Cn1cnc([N+](=O)[O-])n1)NCCO	8.3%	2.4%	.	-1.1%	.	.	.	-3.4%
COc1ccc(-c2cc(C)nc(SCC(=O)c3cccc([N+](=O)[O-])c3)n2)cc1	-7.5%	0.5%	2.1%	-1.5%	0.2%	4.8%	1.0%	10.0%
O=C(NNC(=O)c1cccc2ccccc12)c1ccc(F)cc1	10.1%	.	?	.	.	18.6%	.	17.4%
CC1(C)N(OCc2ccccc2)C(=O)C(=O)N(OCc2ccccc2)C1(C)C	-4.5%	1.6%	-20.1%	2.4%	0.2%	-9.0%[14.3 µM]	-0.5%	15.6%
Cn1cc(C(=O)c2ccc(Cl)cc2Cl)cc1C(=O)NN	2.0%	25.1%	?	12.2%	.	-29.7%[46.1 µM]	.	-18.0%
COc1ccc(NC(=O)Nc2cc(C(=O)NCc3ccc(C)cc3)ccc2N2CCCC2)cc1	.	.	.	.	1.5%	26.6%[46.1 µM]	-5.2%	12.8%
CC1CCCN(c2nc3ccccc3nc2C(C#N)S(=O)(=O)c2cccs2)C1 (stereo unspecified)	1.3%	2.4%	1.0%	-12.9%	-8.9%	10.2%[14.3 µM]	-10.8%	24.9%
Cc1cc(C)nc(NNC(=O)c2ccccc2O)n1	6.1%	3.3%	-2.4%	-0.2%	.	4.1%	.	-11.6%
Cc1ccccc1C(=O)NCC(c1ccco1)N1CCc2ccccc2C1 (stereo unspecified)	3.5%	.	0.9%	5.1%	.	-0.7%	.	-2.2%
COc1ccc(NC(=O)NNC(=O)COc2ccc3cc(Br)ccc3c2)cc1	-2.3%	7.6%	18.5%	6.0%	.	?	.	29.7%
CCOC(=O)c1ccccc1NC(=O)c1c(F)c(F)c(F)c(F)c1F	-1.3%	-123.9%	?	-25.6%	-5.6%	-12.1%	-11.7%	-24.6%
COc1ccc(C2NC(=S)N3C(c4ccc(OC)cc4)NC(=S)N23)cc1 (stereo unspecified)	2.2%	6.5%	-7.2%	23.8%	-6.5%	-15.0%	-14.9%	8.9%
CCOC(=O)Cc1csc(NS(=O)(=O)c2ccc([N+](=O)[O-])cc2)n1	9.3%	0.1%	-15.1%	6.8%	.	-5.3%	.	-5.2%

Following part.
SMILES	RE007 growth inh	NS1 function inh	MARV entry inh	SARS PLpro yeast	Cruzain Triton	Lassa entry inh	Cruzain noTriton	StopGo reporter
CCN1CCN(Cc2oc(CO)cc(=O)c2O)CC1	-20.9%	3.1%	-5.1%	13.0%	5.4%	1.0%	-1.1%	-11.9%
CC(=O)Cc1nsc(NC(=O)c2ccccc2)n1	?	-5.8%	-1.6%	2.6%	3.6%	18.0%	-11.3%	49.1%[activator]
O=C(NC1CCCC1)C(c1ccccn1)N(C(=O)c1csnn1)c1ccccc1Br (stereo unspecified)	2.6%	.	14.5%	1.4%	.	-0.5%	.	13.7%
CCC1CN(C(=O)NCc2ccccc2)c2ccccc2O1 (stereo unspecified)	38.4%	-5.9%	?	-1.1%	.	7.0%	.	-4.6%
CCN(CC)CCC(c1ccc2c(c1)OCO2)c1c(O)cc(OC)cc1OC (stereo unspecified)	-20.7%	-1.0%	.	2.0%	.	.	.	-24.1%
Cc1cc(N/C=C(\C#N)S(=O)(=O)c2ccc(Cl)cc2)nc(C)n1	-0.2%	7.3%	-0.1%	0.6%	.	?	.	-4.4%

Screens from PubChem BioAssay.
